Screening results from PubChem.
LANA-H2B inh: blockers of LANA interaction with H2A/H2B – biochemical, FP readout, HTS, primary screen. Protein LANA1 (Human herpesvirus 8 type P (isolate GK18)), Q9QR71. inhibition, % (no concentration beside the values). 0.6% of 320,000 active. cell-free LANA-H2A/H2B peptide, fluorescence polarization. AID 2629, 2010; in the data active = inhibition mostly above about 10%, no sharp cut-off; inactive = mostly below about 6.7%;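 also: stock transfer was 7.5 nL into about 10 µL; 0% = median of vehicle wells and 100% = median of positive control wells; one replicate is shown; the record names a cut of 25% in any replicate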
B2AR ag: beta2AR agonists driving receptor internalization, primary screen, cell-based, FAP fluorogen, flow cytometry | response, % (test concentration not listed) | AID 504454, 2011 | 0.43% of 340,000 active | Am2.2-beta2AR cells; reference of the scale not given here;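 active = response above a set limit, near 3 SD of response in nonfluorescent compounds, cut at about 42% in these data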;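 also: stock transfer was 100 nL into about 11 µL; a reference agonist was the positive control; negative values mostly stem from fluorescent compounds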
Target sequence (P07550 whole entry, looked up): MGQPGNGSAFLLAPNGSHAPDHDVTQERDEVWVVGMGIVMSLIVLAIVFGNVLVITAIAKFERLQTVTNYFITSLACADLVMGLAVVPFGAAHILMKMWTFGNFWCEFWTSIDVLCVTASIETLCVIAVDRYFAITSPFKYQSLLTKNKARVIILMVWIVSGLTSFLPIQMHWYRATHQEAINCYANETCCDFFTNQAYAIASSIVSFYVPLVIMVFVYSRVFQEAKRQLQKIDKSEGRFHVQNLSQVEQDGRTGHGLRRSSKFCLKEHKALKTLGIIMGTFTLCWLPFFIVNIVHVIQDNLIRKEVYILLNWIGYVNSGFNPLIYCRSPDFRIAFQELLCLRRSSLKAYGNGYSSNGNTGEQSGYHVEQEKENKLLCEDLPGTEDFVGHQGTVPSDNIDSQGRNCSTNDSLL
Calb FLC: C. albicans growth inhibition with fluconazole, primary screen, CaCi-2 strain, Alamar Blue fluorescence; C. albicans CaCi-2 (fluconazole-resistant clinical isolate) + fluconazole, 48 h; growth inhibition, % (concentration not given with the values); 0.57% of 300,000 active; AID 1979, 2009;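 active = most replicates above 75%; inconclusive = exactly half above 75%; inactive = most below 75%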;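 also: all wells also contain fluconazole at 8 µg/ml as a sub-toxic cotreatment; 0% = median of DMSO wells and 100% = median of geldanamycin control wells; wells of about 8 µL received 7.5 nL stock; the first replicate is given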
RanGTP-Impb inh: inhibitors of RanGTP-importin-beta interaction, primary screen, biochemical, FRET, CFP-Ran, YFP-importin-beta, homogeneous | Ran GTPase (GTP-bound) - importin-beta complex | cell-free CFP-Ran/YFP-importin-beta FRET ratio | inhibition, % (test concentration not listed) | 1.1% of 300,000 active | AID 2216, 2009;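 active = most replicates above 15%; inconclusive = exactly half above 15%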;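 also: 0% = DMSO wells and 100% = Ran loaded with GDP instead of GTP; wells of about 40 µL received 100 nL stock; the first replicate is given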
ALR H2O2 inh: inhibitors of human ALR sulfhydryl oxidase, primary screen, biochemical, H2O2 detection, HRP-luminol luminescence, single point; purified ALR, DTT oxidation; 3.8% of 290,000 active; inhibition, % (test concentration not listed);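 active = mean and each replicate at 75% or more; inconclusive = only one of the two met; inactive = neither met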;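 also: stock transfer was 7.5 nL into about 7.5 µL; 0% = neutral wells and 100% = wells with inactivated enzyme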
Target sequence (P55789 whole entry, looked up): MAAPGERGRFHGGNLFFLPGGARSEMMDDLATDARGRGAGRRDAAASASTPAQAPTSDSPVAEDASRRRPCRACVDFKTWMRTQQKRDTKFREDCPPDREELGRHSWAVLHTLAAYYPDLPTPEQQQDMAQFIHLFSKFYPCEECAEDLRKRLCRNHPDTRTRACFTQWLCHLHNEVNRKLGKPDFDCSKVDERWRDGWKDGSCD
Vif A3G: inhibitors of Vif binding to APOBEC3G peptide, primary screen, biochemical, TR-FRET, GST-Vif 1-94, biotin-A3G peptide, dose response retest (AID 1117319). Virion infectivity factor (Human immunodeficiency virus type 1 group M subtype B (isolate …. TR-FRET GST-Vif / biotin-A3G peptide binding; higher % means a stronger effect; test concentration not given here; strong numbers were not always called active. inhibition, %, or IC50 in µM where a hit was titrated. 0.57% of 260,000 active;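 active = above the screen mean plus three standard deviations and confirmed in dose response; inconclusive = results disagree or hit not tested in dose response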;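 also: Vif residues 1-94 fused to GST binding biotinylated APOBEC3G peptide 110-148; 0% = full assay without inhibitor and 100% = GST in place of GST-Vif; retest series ran down from 100 µM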
HNF4A DNA FP: change in binding of human HNF4A to DNA, primary screen, biochemical, fluorescence polarization, FITC-DNA | Hepatocyte nuclear factor 4-alpha (Homo sapiens), P41235 | 0.3% of 360,000 active | 1 h | activity change, % at 10 µM; in the data active = activity change above about 30%, passing the limit was not always enough;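 also: controls were the assay level and a saturating level of protein; the project sought stronger binding though the title names inhibitors; some compounds called inactive have numbers as strong as hits; positive values seem to mean higher polarization but the record does not say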
Target sequence (P41235 whole entry, looked up): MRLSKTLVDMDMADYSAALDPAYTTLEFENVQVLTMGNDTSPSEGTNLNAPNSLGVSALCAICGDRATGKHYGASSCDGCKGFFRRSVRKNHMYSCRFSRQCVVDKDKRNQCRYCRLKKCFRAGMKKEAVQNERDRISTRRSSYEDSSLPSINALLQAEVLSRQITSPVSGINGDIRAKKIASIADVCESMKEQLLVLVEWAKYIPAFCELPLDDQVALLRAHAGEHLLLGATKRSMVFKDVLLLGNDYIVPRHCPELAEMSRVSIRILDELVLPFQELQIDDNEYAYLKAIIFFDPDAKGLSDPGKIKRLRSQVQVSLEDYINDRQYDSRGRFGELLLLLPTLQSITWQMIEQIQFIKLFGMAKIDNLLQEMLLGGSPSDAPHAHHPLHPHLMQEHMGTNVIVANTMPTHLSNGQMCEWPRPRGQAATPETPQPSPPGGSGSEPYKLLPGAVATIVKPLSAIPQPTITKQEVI
* = called active by the depositor; ? = inconclusive; nt = no result given. Hits appear at their usual frequency, and some 6.3% of all compounds hit somewhere here.

Each structure is followed by: HNF4A DNA FP	RanGTP-Impb inh	Vif A3G	Calb FLC	LANA-H2B inh	ALR H2O2 inh	B2AR ag
1	CCOc1ccccc1OCc1nn2c(COc3ccccc3)nnc2s1
  -1.0	-1.9	0%	15	-1.7	3	7
2	Cc1sc2nc(CSc3ccccc3)nc(N3CCOCC3)c2c1C
  0.8	2.4	-6%	9	3.0	?	-14
3	CCN(CC)CCN(Cc1cc2cc3c(cc2[nH]c1=O)OCCO3)C(=S)NC
  -3.7	-9.5	nt	11	1.7	-11	17
4	Cn1c2ccccc2n2c(=O)c(=O)n(CC(=O)c3ccc(F)cc3)nc12
  -4.2	23*	-10%	2	3.7	1	1
5	Clc1ccccc1CNCC1CCCO1 (centres undefined)
  -0.1	-1.2	nt	4	4.0	-4	2
6	NS(=O)(=O)c1ccc(CNC(=O)c2ccc(NS(=O)(=O)c3ccc4[nH]c(=O)[nH]c4c3)cc2)cc1
  1.9	1.8	-1%	nt	-1.2	2	5
7	COc1ccc(N2C(=O)CN=C2Nc2nc(C)cc(C)n2)cc1OC
  1.8	0.3	5%	8	5.7	-5	-5
8	O=C(NCC1CCCO1)c1cc(-c2ccccc2)on1 (centres undefined)
  -2.6	5.1	0%	31	6.3	-4	4
9	O=C(O)C1CCN(Cc2cnn(-c3ccccc3)c2-n2cccc2)CC1
  2.1	5.0	3%	2	0.3	-2	12
10	O=C(O)CC(NCc1ccco1)C(=O)OCCCl (centres undefined)
  0.4	-1.1	22%	?	-6.4	-1	-5
11	CCOc1ccc(C(=O)c2nc3c(n2O)CCCCC3)cc1
  -0.1	0.3	-5%	-1	3.6	-1	-5
12	Cc1ccccc1N=Cc1ccc[nH]1
  1.5	nt	-5%	nt	nt	nt	1
13	O=c1cc(N2CCN(Cc3ccccc3)CC2)[nH]c(=O)n1Cc1ccc(F)cc1
  5.1	42*	-2%	-6	0.2	2	-1
14	N#C/C(=C\c1ccc(F)c(Cl)c1)S(=O)(=O)c1ccccn1
  0.7	7.3	15%	-8	2.4	1	-1
15	COc1cc(OC)c(-n2c(C)cc(C=O)c2C)cc1Cl
  -3.2	0.4	0%	-4	2.1	-9	0
16	COC(=O)C(Cc1ccc(OC(=O)c2ccc(C)cc2)cc1)N1Cc2ccccc2C1=O (centres undefined)
  -0.5	1.6	-2%	1	-4.6	-10	8
17	CCc1ccc(CNC(=O)c2nn(C)c3c2CS(=O)(=O)c2ccccc2-3)cc1
  -2.8	9.1	19%	0	2.8	-1	13
18	O=c1cc2ncc(-c3[nH]ncc3[N+](=O)[O-])cn2[nH]1
  -0.1	-1.1	23%	-2	0.6	8	-7
19	CC(C)(C)c1ccc(COC(=O)Nc2ccc(F)cc2)cc1
  1.5	-2.8	-4%	-7	-3.7	-23	2
20	CCN(c1ccccc1)S(=O)(=O)c1ccc(C(=O)NCCc2ccc(S(N)(=O)=O)cc2)cc1
  -1.2	-1.1	nt	-1	3.8	4	4
21	CCN(CC)CP(=O)(c1ccccc1)c1ccccc1
  1.8	-3.0	-3%	-2	-0.6	0	1
22	COc1ccc(OCCSCc2nnc(NC(=O)Nc3ccc(Cl)cc3)s2)cc1
  1.1	-3.8	nt	?	-0.1	nt	1
23	CCOc1ccc(/C(O)=C2/C(=O)C(=O)N(CCOCCO)C2c2ccccn2)cc1 (centres undefined)
  2.6	-4.8	2%	24	8.9	-24	-7
24	O=C1CCCc2c1[nH]c1ccc(Br)cc21
  -2.3	0.2	1%	-4	-1.4	-8	-5
25	CN(C(=O)Cn1nnc(-c2cccc(C(F)(F)F)c2)n1)C1CCCCC1
  -1.7	1.9	4%	-3	-1.4	-2	0
26	Nc1ccc(C(=O)Oc2ccc([N+](=O)[O-])cc2)cc1
  1.1	1.9	-12%	nt	3.9	23	-3
27	O=C1CSC(=Nc2ccccc2)N1
  3.6	2.8	19%	7	0.6	-16	-21
28	O=[N+]([O-])c1ccc(Sc2ccc(F)cc2)nc1
  -1.1	-2.3	nt	-1	-1.7	0	-4
29	O=C(NC12CC3CC(CC(C3)C1)C2)c1cccnc1Cl
  -4.1	?	nt	2	-1.6	nt	-2
30	COCc1c(C(=O)N/N=C(\C)c2ccc(Cl)s2)nnn1-c1nonc1N
  -1.7	-1.1	nt	24	4.8	nt	4

Structures from the list above that contain an aryl thioether with sulfur outside any ring:
Each structure is followed by: HNF4A DNA FP	RanGTP-Impb inh	Vif A3G	Calb FLC	LANA-H2B inh	ALR H2O2 inh	B2AR ag
2	Cc1sc2nc(CSc3ccccc3)nc(N3CCOCC3)c2c1C
  0.8	2.4	-6%	9	3.0	?	-14
28	O=[N+]([O-])c1ccc(Sc2ccc(F)cc2)nc1
  -1.1	-2.3	nt	-1	-1.7	0	-4

Going on with the list:
Each structure is followed by: HNF4A DNA FP	RanGTP-Impb inh	Vif A3G	Calb FLC	LANA-H2B inh	ALR H2O2 inh	B2AR ag
31	Cc1nn(-c2ccc(C(=O)NCC(c3ccco3)N3CCCC3)cc2)c(C)c1Cl (centres undefined)
  4.0	nt	0%	nt	0.2	-3	-1
32	CCOC(=O)c1sc(-c2ccccc2)cc1NC(=O)Nc1ccc([N+](=O)[O-])cc1
  2.5	-1.5	-2%	-9	-3.3	99*	7
33	CCOc1cc(-c2noc(CCC(=O)NC3CCCCC3)n2)ccc1OC
  3.6	1.5	nt	-5	-2.2	-3	-5
34	Cc1ccc2nc(COc3ccc(Cl)cc3)cc(=O)n2c1
  1.7	-0.5	nt	43	-4.1	9	-12
35	O=C(CSc1ccccc1)N1CCN(S(=O)(=O)c2cccs2)CC1
  3.2	8.6	-1%	9	-2.7	-7	-4
36	ONC(=Nc1ccccc1)c1ccccc1Cl
  3.0	5.2	-2%	6	1.2	54	8
37	COC(=O)C1CC(=O)c2sccc2C1 (centres undefined)
  0.4	-4.7	-7%	4	-0.6	0	1
38	COc1cccc(C(C2C(=O)CC(C)(C)CC2=O)C2C(=O)CC(C)(C)CC2=O)c1
  -2.0	0.5	1%	2	-1.0	nt	0
39	CC1Cc2ccccc2N1C(=O)CSC1=NCCS1 (centres undefined)
  -1.6	5.3	5%	6	-2.7	4	-10
40	COC(=O)C[C@H](NC(=O)Cn1cnc2c(SC)nc(N)nc21)C(=O)OC
  -0.3	nt	nt	nt	nt	-2	7
41	CNS(=O)(=O)c1cccc(C(=O)OCC(=O)NC(C)CCc2ccccc2)c1 (centres undefined)
  -1.0	1.3	1%	4	-0.5	nt	0
42	O=C1CC(N2CCN(S(=O)(=O)c3ccc([N+](=O)[O-])cc3)CC2)C(=O)N1c1ccccc1F (centres undefined)
  0.3	nt	-1%	nt	0.0	-25	-10
43	COc1cc(OC)cc(C(=O)N[C@H](C(=O)OCC(=O)NC(C)c2ccccc2)C(C)C)c1 (some centres undefined)
  0.8	6.5	nt	-3	1.1	nt	4
44	COc1ccc(C2=NS(=O)(=O)N(C)C(C(=O)N3CCCCC3)=C2)cc1OC
  0.2	3.2	nt	8	0.0	-11	-5
45	CCCOc1ccccc1C(=O)NCCCC(=O)O
  -1.0	1.4	?	-1	4.5	-8	-2
46	CCc1ccc(NC(=O)COC(=O)c2cccs2)cc1
  3.0	?	nt	-6	0.6	-7	-3
47	Cc1ccc(C)c(C(=O)COC(=O)C2CCN(c3ccc(C(F)(F)F)cn3)CC2)c1
  -2.5	-1.8	nt	-2	-4.8	-18	4
48	NC(=S)N/N=C/c1ccc2ccccc2c1
  1.7	-0.2	1%	-27	4.6	-6	2
49	COc1ccc(C(CC(=O)N2CCOCC2)c2c(OC)cc(OC)c3ccc(=O)oc23)cc1 (centres undefined)
  -6.6	3.1	nt	1	1.3	nt	-4
50	O=C(NCCN1CCOCC1)c1ccc(Cl)c([N+](=O)[O-])c1
  -1.3	?	1%	-7	-1.6	-6	-1
51	O=C(Cn1cnc(S(=O)(=O)N2CCCC2)c1)Nc1ccccc1
  1.8	3.5	-7%	34	3.0	-5	-1
52	O=C(NC1CCCCCC1)c1ccc2c(=O)n3c(nc2c1)CCCCC3
  0.3	4.2	-1%	4	1.8	8	-14
53	CC(=O)c1ccc(N2CCN(S(=O)(=O)c3cn(C)c(C)n3)CC2)cc1
  1.5	-2.5	-2%	2	0.3	-1	-2
54	CCCNC(=O)COC(=O)c1ccc(S(=O)(=O)N2CCCC2)cc1
  -4.0	-2.8	nt	8	-7.5	-4	2
55	COc1ccccc1/C=N/NC(=O)CC(=O)NCc1cccnc1
  0.2	1.1	nt	14	-0.4	-3	-2
56	N=C1SCC(=O)N1c1nc(-c2ccccc2)cs1
  1.7	6.7	-18%	4	5.5	-5	-7
57	Nc1nc2ccc(C(=O)Nc3ccc(N4CCOCC4)cc3)cc2s1
  -1.9	nt	-7%	nt	0.9	10	-1
58	CN(C)C(CNC(=O)c1ccc(C(F)(F)F)cc1)c1ccco1 (centres undefined)
  -1.0	1.1	7%	-7	2.7	-5	0
59	CC(=O)Nc1ccc(NC(=O)CSc2nnc3ccc(-c4cccnc4)nn23)cc1
  3.7	-4.6	3%	-4	5.9	-18	-2
60	CCn1nc(C(=O)NNC(=O)c2ccc(OC(F)F)cc2)c2ccccc2c1=O
  -0.2	nt	nt	nt	4.6	-6	-1
61	O=C(CNS(=O)(=O)c1ccccc1)OCC(=O)c1ccc(OC(=O)c2ccccc2)cc1
  1.8	2.7	6%	18	0.4	-8	3
62	CC(C)C[C@H](NC(=O)N1CC(=O)Nc2ccccc21)C(=O)N[C@@H](Cc1c[nH]c2ccccc12)C(=O)O
  0.8	7.9	nt	-5	-3.9	nt	2
63	COc1cc(/C=C/C(=O)OC(C)C(=O)c2ccccc2)cc(OC)c1OC (centres undefined)
  6.9	?	6%	-6	-0.2	nt	20
64	CCC(C)N=Cc1c(NCc2ccco2)nc2c(C)cccn2c1=O (centres undefined)
  -0.6	1.9	-8%	-3	1.6	-2	1
65	Cc1ccc(S(=O)(=O)CCC(=O)OCC(=O)Nc2ccc(N3CCOCC3)cc2)cc1
  2.6	nt	nt	-6	-1.2	10	-2
66	COc1ccc(Cl)cc1NC(=O)C1Cc2cc(S(=O)(=O)N3CCCC3)ccc2N1C(C)=O (centres undefined)
  1.1	1.1	nt	-4	3.2	-1	10
67	CC1CCCCC1NC(=O)C1CCN(S(=O)(=O)N2CCCCCC2)CC1 (centres undefined)
  0.6	6.0	0%	-5	-0.9	-3	-8
68	Cc1nnc(SCC(=O)Nc2nc3c(s2)CC(C)CC3)s1 (centres undefined)
  -0.4	0.5	-2%	0	1.1	-3	1
69	COCCNC(=O)CN(c1ccccc1OC)S(C)(=O)=O
  2.5	3.4	2%	-1	11	-1	-1
70	CC(C)(O)P(=O)(O)CCc1ccccc1
  2.5	-0.2	-3%	-4	-15	-1	5
71	CCOC(=O)c1c(C)[nH]c(C(=O)COC(=O)C2CC2C)c1C (centres undefined)
  -3.3	-3.3	26%	1	-3.3	-9	0
72	COc1ccc(C2CC(c3ccc(OC)cc3OC(C)=O)=NN2C(=O)c2ccccc2)cc1 (centres undefined)
  -0.2	3.0	nt	2	4.3	-36	-1
73	Cc1ccc(NC(=O)C(C)C(=O)Nc2ccc(C)cc2)cc1
  -3.6	-2.1	nt	-5	-1.3	-3	-4
74	COC(=O)c1cccc(NC(=O)CSc2nc3cccnc3n2C)c1
  0.1	nt	7%	nt	1.5	98*	-4
75	CCOc1ccc(-n2c(=S)sc3c(=O)[nH]c(SCC(=O)C(C)(C)C)nc32)cc1
  -0.2	-2.6	7%	36	-1.8	18	1
76	O=C(NC1CCCC1)c1cccc(S(=O)(=O)N2CCOCC2)c1
  2.0	nt	-3%	nt	-2.3	nt	4
